CapD inh – CapD enzyme inhibition | purified CapD enzyme, fluorescence intensity read-out; active compounds read low; some hits fall short of the stated cut | AID 492967 | 0.23% of 140,000 active | z-score (no concentration beside the values);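 active means z-score under -4 in either of two replicates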;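 further: stock transfer was 100 nL into about 40 µL; score is relative to mean and spread of the plate; one replicate is shown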
AID504770 – E. coli YBA685 growth inhibition, screen for V. cholerae RctB inhibitors; E. coli YBA685 rctB-dependent plasmid, OD600 growth, 3 h; active compounds read low; z-score (concentration not given with the values); 0.27% of 130,000 active; AID 504770;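 active means z-score under -2 on both plates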;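 further: wells of about 30 µL received 100 nL stock; score is relative to mean and SD of the test wells; the first replicate is given; strong numbers were not always called active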
* hit, by the source's call.

Results for Cc1ccc2c(nc3s/c(=C/c4cc5c(cc4Br)OCO5)c(=O)n32)c1C ?
CapD inh: -0.52

What do the screens show for `Nc1nonc1OCCNc1ccccc1`?
CapD inh: 0.06; AID504770: -0.65

How did CCOc1ccc([C@@H]2[C@@H](C(C)=O)N3c4ccccc4C=C[C@@H]3C2(C#N)C#N)cc1 do in these assays?
CapD inh: 0.73

Results for O=C1CC(c2ccsc2)c2c(n[nH]c2-c2ccccc2)N1 (centres undefined) ?
CapD inh: -0.1; AID504770: 1.4

How did CCc1ccc(NC(=O)c2cccc3c2C(=O)N(C2CCCCC2)C3)cc1 do in these assays?
CapD inh: -1.3; AID504770: 2.1

Results for N#Cc1c(Cl)cccc1N1CCCC1 ?
CapD inh: 28

Results for O=C1NC(=O)/C(=C/c2ccccc2Oc2ccc(Br)cc2F)S1 ?
CapD inh: 0.42

Results for O=C(CC1(O)C(=O)Nc2ccccc21)c1ccccc1 (centres undefined) ?
CapD inh: -0.23; AID504770: 1.1

What do the screens show for `COc1ccc(-c2noc(CCC(=O)NC3CCN(Cc4ccccc4)CC3)n2)cc1`?
CapD inh: 0.39; AID504770: -0.6

Results for CC(=O)N[N+]1=C(N)c2ccccc2C1 ?
CapD inh: -0.59; AID504770: -0.2

Results for CCOc1ccc2nc(NCCNC(=O)COc3ccccc3)c(C#N)cc2c1 ?
AID504770: -0.35

How did Cc1ccc(C)c(OC(=O)NC(C)(C(F)(F)F)C(F)(F)F)c1C do in these assays?
CapD inh: -0.57; AID504770: -0.6

Results for N#CCc1ccc(C(=O)c2ccc(Cl)cc2Cl)s1 ?
CapD inh: 0.29; AID504770: -1.3

How did CCOC(=O)CC(C)Nc1cc(NC(C)=O)ccc1OC (centres undefined) do in these assays?
CapD inh: 0.34; AID504770: 0

What do the screens show for `Cc1nc(C(=O)Nc2ccccc2Cl)nn1-c1cc(Cl)cc(Cl)c1`?
CapD inh: 0.3

What do the screens show for `O=C(COC(=O)c1cc2c(s1)CCC2)c1ccc(Br)s1`?
AID504770: -0.35

Results for CCn1c(=O)c(C2=NS(=O)(=O)c3ccccc3N2)c(O)c2ccccc21 ?
CapD inh: -0.51; AID504770: -0.95

How did CCn1c(N2CCCC(C(=O)Nc3ncn[nH]3)C2)nc2ccccc21 (centres undefined) do in these assays?
AID504770: 0.05

What do the screens show for `Cc1ccccc1NC(=O)c1sc2nc[nH]c(=O)c2c1C`?
CapD inh: 1.2; AID504770: -0.5

What do the screens show for `CCCCn1c(C)nc2ccccc21`?
AID504770: 1.4

Filtered by structure, those above with an aryl methoxy group
What do the screens show for `COc1ccc(-c2noc(CCC(=O)NC3CCN(Cc4ccccc4)CC3)n2)cc1`?
CapD inh: 0.39; AID504770: -0.6

How did CCOC(=O)CC(C)Nc1cc(NC(C)=O)ccc1OC (centres undefined) do in these assays?
CapD inh: 0.34; AID504770: 0

Returning to the listing, starting three compounds before the break.
How did CCn1c(N2CCCC(C(=O)Nc3ncn[nH]3)C2)nc2ccccc21 (centres undefined) do in these assays?
AID504770: 0.05

What do the screens show for `Cc1ccccc1NC(=O)c1sc2nc[nH]c(=O)c2c1C`?
CapD inh: 1.2; AID504770: -0.5

What do the screens show for `CCCCn1c(C)nc2ccccc21`?
AID504770: 1.4

How did O=C(Oc1cccc(Br)c1)c1cccnc1 do in these assays?
CapD inh: -0.2; AID504770: -0.35

How did CSc1nc(C)nc(N/C=C2\C(=O)c3ccccc3N(C)S2(=O)=O)n1 do in these assays?
CapD inh: -0.36; AID504770: 0.6

Results for O=C(CSc1ccccc1)Nc1nnc(-c2ccccc2)o1 ?
AID504770: -0.85

What do the screens show for `Cc1nc2cc(Cl)c(Cl)cc2nc1C`?
CapD inh: -0.11

Results for Cc1ccc(N(CC(=O)NC(c2ccccc2)c2ccccc2)S(=O)(=O)N2CCCC2)cc1 ?
CapD inh: -0.58; AID504770: -0.2

How did COc1cc(/C=c2/sc3nc4ccccc4n3c2=O)cc(OC)c1OC(=O)N(C)C do in these assays?
CapD inh: 0.3

What do the screens show for `COc1cc(NC(=O)C2CCCC2)c(C(=O)OCC(=O)N2CC(C)CC(C)C2)cc1OC` (centres undefined)?
AID504770: -0.45

What do the screens show for `Cc1ccc(CNC(=O)C2(c3ccc(Cl)cc3)CCC2)n1C`?
AID504770: -1.1

What do the screens show for `CCOc1[nH]n(-c2ccc(Cl)cc2)c(=O)c1C=Nc1ccc(C)cc1`?
CapD inh: -0.66

How did COc1ccc(S(=O)(=O)N2c3ccccc3OCC2C(C)(C)C)cc1 (centres undefined) do in these assays?
CapD inh: -0.61

Results for CSc1nnc(CCCN)n1C1CCCC1 ?
AID504770: 0.4

How did N=C(N)N1CCN(c2ccccc2)CC1 do in these assays?
CapD inh: 0.26; AID504770: -0.45

What do the screens show for `CCC(=O)Nc1ccc(Oc2ccc(C)cc2)cc1`?
AID504770: 0.7

Results for N#CC1(C#N)[C@H](c2ccccc2I)[C@@H](C(=O)c2ccccc2)N2c3ccc(Cl)cc3C=C[C@@H]21 ?
CapD inh: 0.3

How did O=C(CCn1cnc2ccccc2c1=O)Nc1ccccn1 do in these assays?
AID504770: -0.2

What do the screens show for `CCCCCCn1nc(C(=O)OCc2nnc(-c3ccccc3)o2)c2ccccc2c1=O`?
AID504770: -0.35

Results for Cc1c(C(=O)/C=C/N(C)C)sc(=S)n1CCc1ccc(Cl)cc1 ?
CapD inh: -1.3; AID504770: -0.15

How did Cc1nonc1C(=O)NCC(=O)O do in these assays?
AID504770: -0.45

Results for Cc1ccc(NCc2nnc(SCC(=O)c3ccc(C)cc3)n2C)cc1 ?
AID504770: 1.5

What do the screens show for `Nc1ccccc1-c1nc2cc3ccccc3cc2[nH]c1=O`?
CapD inh: -0.42; AID504770: 2.3

The last 2 records of the part above lead into the next.
Results for Cc1ccc(NCc2nnc(SCC(=O)c3ccc(C)cc3)n2C)cc1 ?
AID504770: 1.5

What do the screens show for `Nc1ccccc1-c1nc2cc3ccccc3cc2[nH]c1=O`?
CapD inh: -0.42; AID504770: 2.3

Results for Cc1cc(Cl)ccc1OCC(=O)N/N=C/c1ccc(C#N)cc1 ?
CapD inh: 0.12

Results for COC(=O)C1=CN(Cc2ccc(Cl)cc2)C=C(C(=O)OC)C1c1cc(OC)c(OC)cc1OC ?
CapD inh: 4.6

How did CC1Cc2ccccc2N1S(=O)(=O)c1ccc2[nH]c(=O)c(=O)[nH]c2c1 (centres undefined) do in these assays?
CapD inh: -0.1; AID504770: 0.2

How did CCCCCCOc1ccc(/C=C/C(=O)Oc2ccc(CC(C)CC)cc2)cc1 (centres undefined) do in these assays?
CapD inh: 0.15

What do the screens show for `O=S(=O)(NCCN1CCCCC1)c1ccc(Cl)c(Cl)c1`?
CapD inh: 0.28

Results for COC(=O)c1c(F)c(F)c(Oc2ccc(NC(C)=O)cc2)c(F)c1N1CCCCC1 ?
CapD inh: -0.58; AID504770: -0.25

Results for Cn1cc(SCC(=O)NC2CCCCC2)c2ccccc21 ?
CapD inh: -0.39; AID504770: -0.9

What do the screens show for `CC(Sc1nnc(COc2ccccc2F)n1-c1ccccc1)C(=O)NC(N)=O` (centres undefined)?
AID504770: -0.1

How did COC(=O)c1cn(CC(=O)N2c3ccccc3CC2C)c2ccccc12 (centres undefined) do in these assays?
AID504770: -0.65

What do the screens show for `O=C(CSc1nc2ccccc2n1S(=O)(=O)c1ccc(Cl)cc1)NCc1cccc(Cl)c1`?
CapD inh: -0.67

Results for Oc1ccc2ccccc2c1CN1CCN(C/C=C/c2ccccc2)CC1 ?
CapD inh: 3.3; AID504770: -0.1

Results for CC(C)N1C(=O)c2ccccc2C1C(=O)NCCc1ccccc1 (centres undefined) ?
CapD inh: 0.005; AID504770: -1.1

How did COc1ccc(-c2noc(CCC(=O)O)n2)cc1OC do in these assays?
AID504770: -0.3

What do the screens show for `Cc1ccccc1CC1SC(=Nc2ccccc2)NC1=O` (centres undefined)?
CapD inh: -0.25

What do the screens show for `CN(C)S(=O)(=O)c1cc(S(=O)(=O)N(C)C)c(Cl)s1`?
CapD inh: -0.68; AID504770: 1.8

What do the screens show for `Cc1cc(NC(=O)CSc2nc(-c3ccco3)nc3c2c(=O)n(C)c(=O)n3C)no1`?
CapD inh: 2.9; AID504770: 0.9

What do the screens show for `c1csc(-c2nc(-n3ccnc3)c3ccccc3n2)c1`?
AID504770: -0.45

What do the screens show for `CC(C)(C)c1cc(C(=O)Nc2ccc(Cl)cc2)n(Cc2ccccc2)n1`?
CapD inh: 9.1; AID504770: 2.8

How did CCSc1cnn(C)c(=O)c1SCC do in these assays?
CapD inh: -1.5; AID504770: -1.6

What do the screens show for `CC1=NN(C(=O)c2ccc(N/C(C)=C/C(=O)C(F)(F)F)cc2)C(O)(C(F)(F)F)C1` (centres undefined)?
CapD inh: -0.19

What do the screens show for `Nc1cccc2c(-c3ccccc3)ccnc12`?
CapD inh: -0.02; AID504770: 2.2

Results for Cc1nn(-c2ccccc2)c2sc(C(=O)NCC3CCCO3)cc12 (centres undefined) ?
CapD inh: -0.21; AID504770: 0.1

What do the screens show for `Cc1cccc(NC(=O)CSc2nc(-c3cccs3)cc(C(F)(F)F)c2C#N)n1`?
CapD inh: 33

How did CCOc1ccc(NC(=O)NCCCn2c(C)nc3cc(C)c(C)cc32)cc1 do in these assays?
CapD inh: 0.38; AID504770: -0.35

How did CCOC(=O)C1=C(C(=O)OCC)SC2(S1)C(C(=O)OCC)=C(C(=O)OCC)SC1=C2c2ccccc2N(C)C1(C)C do in these assays?
CapD inh: -0.15

How did O=C1CC(=O)c2c1cccc2[N+](=O)[O-] do in these assays?
CapD inh: -2.2

What do the screens show for `CC(=O)N1C2=C(CCCC2)C(=O)NC12CCCCC2`?
CapD inh: 4.2; AID504770: 0

What do the screens show for `COCCn1ccc2c(OCC(=O)Nc3cccc(NC(C)=O)c3)cccc2c1=O`?
AID504770: 0.55

Results for COC(=O)c1ccc2c(c1)sc1nc(-c3ccc(Cl)cc3)cn12 ?
CapD inh: 3.7; AID504770: 0.4

Results for OC(c1ccc2c(c1)OCO2)c1cccs1 (centres undefined) ?
CapD inh: -0.35; AID504770: 1.2

What do the screens show for `CCN1CCN(C(=O)C2CCN(S(=O)(=O)c3ccc4c(c3)nc(C)n4C3CCCC3)CC2)CC1`?
CapD inh: -0.58; AID504770: 0.55

How did O=S(=O)(c1cccc2nonc12)N1CCc2ccccc2C1 do in these assays?
CapD inh: -0.66

Results for CC1(C)CC(NC(=O)COc2ccc(C#N)cc2)CC(C)(C)N1 ?
CapD inh: 1.1; AID504770: 0.2

What do the screens show for `O=C1ON(c2ccccc2)C(=O)/C1=C/c1ccccc1`?
CapD inh: 0.27; AID504770: -0.3

Results for CCOc1ccccc1OC(=O)Cc1cc(OC)c(OC)c(OC)c1 ?
AID504770: 2

Results for COc1ccc(-c2noc(N3CCc4ccccc43)n2)cc1 ?
CapD inh: -0.27; AID504770: -0.75

What do the screens show for `CCN(CC)CCNS(=O)(=O)c1c(C)c(C)c(C)c(C)c1C`?
CapD inh: -0.78; AID504770: -0.55

What do the screens show for `CCN(CC)S(=O)(=O)c1ccc(-c2csc(N3N=C(c4ccc(OC)cc4)CC3c3ccco3)n2)cc1` (centres undefined)?
CapD inh: 0.91

Results for CN1CCN(c2ccc(NC(=O)Cc3ccccc3)cc2)CC1 ?
AID504770: -0.55

What do the screens show for `CCOc1ccc(C(=O)c2[nH]c(=O)c3ccccc3c2O)cc1`?
CapD inh: -1.5; AID504770: 1.1

Compounds shown so far that have a tert-butyl group, in the order listed:
How did COc1ccc(S(=O)(=O)N2c3ccccc3OCC2C(C)(C)C)cc1 (centres undefined) do in these assays?
CapD inh: -0.61

What do the screens show for `CC(C)(C)c1cc(C(=O)Nc2ccc(Cl)cc2)n(Cc2ccccc2)n1`?
CapD inh: 9.1; AID504770: 2.8

(cont.)
How did CC(C)c1nc2ccc(Cl)cc2c2c1C(=O)N(NC(=O)c1ccccc1NC(=O)c1c(F)cccc1F)C2=O do in these assays?
CapD inh: -0.3

Results for N#CC(CC(=O)N1CCCCCC1)C(=O)Nc1ccc(Cl)cc1 (centres undefined) ?
AID504770: 0.1

How did O=C(Cn1nnc(-c2cccc(C(F)(F)F)c2)n1)Nc1ccc(F)cc1 do in these assays?
CapD inh: -0.71; AID504770: -0.35

Results for CC1CCCCN1S(=O)(=O)c1cccc(C(=O)O)c1 (centres undefined) ?
CapD inh: 0.88; AID504770: 0.65

What do the screens show for `O=C(Nc1ccccc1F)NC1CCCc2ccccc21` (centres undefined)?
CapD inh: 0.61; AID504770: -0.4

How did CCCCn1c(C)c(C(=O)OCC)c2cc(OC(=O)c3ccccc3F)c3ccccc3c21 do in these assays?
CapD inh: -1.5

What do the screens show for `CC(=NCCc1ccc(Cl)cc1)c1ccccc1O`?
CapD inh: -0.24; AID504770: 0.65

What do the screens show for `COc1ccc(OC)c2c(=O)cc(C(=O)O)[nH]c12`?
CapD inh: -0.05

Results for O=C(OCC1COC2(CCCCC2)O1)N1CCC(O)(Cc2ccccc2)CC1 (centres undefined) ?
CapD inh: -0.2

What do the screens show for `CC(C)N(Cc1ccccc1)S(=O)(=O)c1ccc2c(c1)OCCO2`?
AID504770: 2.1

What do the screens show for `CC(C)COC(=O)c1nnsc1NC(=O)Nc1ccccc1`?
AID504770: 0.7

How did O=C(Cc1noc2ccccc12)NCCOC12CC3CC(CC(C3)C1)C2 do in these assays?
CapD inh: -1.5; AID504770: 1

How did CCc1ccc(NC(=O)N2CCCC(CN3CCc4ccccc4C3)C2)cc1 (centres undefined) do in these assays?
CapD inh: -1.8; AID504770: 0.3
